# Screening results from PubChem BioAssay.
# tim23-1 inh – growth inhibitors of tim23-1 mutant yeast | S. cerevisiae tim23-1 growth, BacTiter-Glo luminescence, 24 h | inhibition, % at 20 µM | actives 1.3% (n = 330,000) | AID 463212;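 active = growth inhibition of the mutant yeast at or above 50%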;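 note: temperature-sensitive mutant grown at 25 °C; plate controls were DMSO-treated mutant yeast for no effect and medium wells lacking yeast for full effect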
# MIN6 prolif – MIN6 beta-cell proliferation induction; MIN6 cells proliferation, ATPlite luminescence, 48 h; cells starved in 0.2% serum; 100% = growth in 10% serum; proliferation, % at 10 µM; actives 0.29% (n = 330,000); AID 2380;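 active = compounds whose signal lies at least 3.5 SD above the mean of all wells on their plate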;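 note: 0% = DMSO-treated cells in low-serum medium and 100% = 10% serum control; some compounds called inactive have numbers as strong as hits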
# tim10-1 inh – tim10-1 yeast growth inhibition; S. cerevisiae tim10-1 ts strain growth, BacTiter-Glo, 24 h; inhibition, % at 20 µM; actives 2.2% (n = 330,000);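 active = inhibition of at least 40%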;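 note: mutant grown at 25 °C; 0% = DMSO wells with yeast and 100% = wells holding no yeast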
# TIM10 inh – TIM10 yeast growth inhibition; S. cerevisiae TIM10 strain growth, BacTiter-Glo luminescence, 24 h; AID 463195; inhibition, % at 10 µM; actives 1.4% (n = 330,000);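 active = inhibition of 40% or more at the single tested concentration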;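 note: wild-type TIM10 isogenic control strain grown at permissive 25 °C; 0% = DMSO yeast wells and 100% = minimal medium wells without yeast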
# NALP3 yeast inh – NALP3 inhibition in yeast; Yeast reconstituted NLRP3/ASC/caspase-1, beta-gal luminescence, 24 h; inhibition, % at 10 µM; actives 0.39% (n = 330,000);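 active = inhibition of 50% or more; inactive = inhibition below 50%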;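 note: plate controls were induced DMSO wells for no effect and uninduced yeast grown without galactose for full effect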
# The depositor's hits bear a star; & = joins results of further samples. A portion of the library; count on the stated rates, not on these rows.
# Each structure is followed by: tim23-1 inh	MIN6 prolif	tim10-1 inh	TIM10 inh	NALP3 yeast inh
CC1(C)CC(=O)C(C=Nc2cccnc2/N=C/C2=C(O)CC(C)(C)CC2=O)=C(O)C1
 : 4.6	-1.6	13.9	7.8	5.4
Cc1cccc(/C=N/NC(=O)c2cccc(Cl)c2)n1
 : 7.2	-5.5	-17.5	23.2	13.3
Cc1ccc(S(C)=O)cc1-n1c(=O)n(Cc2ccccc2)c(=O)c2[nH]cnc21 (centres undefined)
 : 13.5	-0.5	9.8	7.7	38.9
Cc1cccc(/C=N/NC(=O)c2cccc([N+](=O)[O-])c2)n1
 : -9.7	1.2	-0.9	17.2	16.3
CCOc1ccccc1O[C@H](c1ccccc1)[C@H]1CNCCO1
 : -5.2	-1.9	1.6	1.3	14.9
CCC1Nc2ncnc(N3CCN(c4ccccc4)CC3)c2N(Cc2ccc(Cl)cc2)C1=O (centres undefined)
 : 30.2	-7.6	22.0	17.0	32.2
COC(=O)c1cc(-c2cc(OC)ccc2OC)nc2c1c(=O)n(C)c(=O)n2Cc1ccccc1
 : 19.6	-3.2	19.2	11.8	25.4
O=[N+]([O-])c1cc(Cl)c(O)c2ncccc12
 : -13.3	-5.5	-16.4	-6.7	22.4
O=C(O)c1cc([N+](=O)[O-])cc2c1nnn2O
 : 3.7	-1.1	14.8	17.2	17.1
COc1cc(Cc2cnc(N)nc2N)cc(OC)c1OC
 : -2.7&-8.6	-2.7&-1.6	0.2&8.5	5.8&1.3	-3.9&7.8
O=C(C[C@@H]1C/C=C/CC[C@H](Cc2ccc(F)cc2)C(=O)O[C@H](c2ccccc2)CNC1=O)NCCO
 : -16.8	0.9	-14.6	-8.5	7.5
CCC1Nc2ncnc(N3CCN(c4ccccc4)CC3)c2N(Cc2ccc(OC)cc2)C1=O (centres undefined)
 : 19.4	-0.6	15.8	10.4	29.1
CC(C(=O)O)c1cccc(C(=O)c2ccccc2)c1 (centres undefined)
 : 18.5	-0.5	-3.4	11.9	11.7
CC(=O)Nc1nnc(S(N)(=O)=O)s1
 : 9.8	-1.8	11.7	-4.8	20.0
CCC1Nc2ncnc(N3CCN(c4ccccc4)CC3)c2N(Cc2ccc(C)cc2)C1=O (centres undefined)
 : 33.2	-6.1	28.3	25.9	20.9
NCCCC[C@H](N[C@@H](CCc1ccccc1)C(=O)O)C(=O)N1CCC[C@H]1C(=O)O
 : 5.4&1.4	-0.9&-0.4	18.4&-1.3	12.1&8.2	12.4&9.6
C/C(=N\NC(=O)c1cccc2ccccc12)c1ccccn1
 : 34.4	-7.0	8.3	6.0	38.6
O=C1NCCOC(=O)[C@H](Cc2ccc(F)cc2)CC/C=C/C[C@@H]1CC(=O)N(CCO)Cc1ccccc1
 : -4.5	-3.2	0.6	-5.0	24.1
Nc1c2c(nc3ccccc13)CCCC2
 : -8.2	0.1	5.0	8.4	10.0
OCCN1CCN(c2ncnc3c2c(-c2ccccc2)cn3-c2ccc(F)cc2)CC1
 : 28.5	-4.5	14.6	0.9	10.5

# 10 entries already listed, ordered by heavy-atom count, high to low:
# Each structure is followed by: tim23-1 inh	MIN6 prolif	tim10-1 inh	TIM10 inh	NALP3 yeast inh
O=C(C[C@@H]1C/C=C/CC[C@H](Cc2ccc(F)cc2)C(=O)O[C@H](c2ccccc2)CNC1=O)NCCO
 : -16.8	0.9	-14.6	-8.5	7.5
COC(=O)c1cc(-c2cc(OC)ccc2OC)nc2c1c(=O)n(C)c(=O)n2Cc1ccccc1
 : 19.6	-3.2	19.2	11.8	25.4
CCC1Nc2ncnc(N3CCN(c4ccccc4)CC3)c2N(Cc2ccc(C)cc2)C1=O (centres undefined)
 : 33.2	-6.1	28.3	25.9	20.9
OCCN1CCN(c2ncnc3c2c(-c2ccccc2)cn3-c2ccc(F)cc2)CC1
 : 28.5	-4.5	14.6	0.9	10.5
NCCCC[C@H](N[C@@H](CCc1ccccc1)C(=O)O)C(=O)N1CCC[C@H]1C(=O)O
 : 5.4&1.4	-0.9&-0.4	18.4&-1.3	12.1&8.2	12.4&9.6
C/C(=N\NC(=O)c1cccc2ccccc12)c1ccccn1
 : 34.4	-7.0	8.3	6.0	38.6
Cc1cccc(/C=N/NC(=O)c2cccc(Cl)c2)n1
 : 7.2	-5.5	-17.5	23.2	13.3
O=C(O)c1cc([N+](=O)[O-])cc2c1nnn2O
 : 3.7	-1.1	14.8	17.2	17.1
O=[N+]([O-])c1cc(Cl)c(O)c2ncccc12
 : -13.3	-5.5	-16.4	-6.7	22.4
CC(=O)Nc1nnc(S(N)(=O)=O)s1
 : 9.8	-1.8	11.7	-4.8	20.0
